Screens: PubChem BioAssay, National Center for Advancing Translational Sciences (NCATS)
hNpr1 antagonist = blocks ANP-stimulated signaling of human Npr1 receptor. HEK293 hNpr1 GloSensor cGMP, ANP-stimulated luminescence. 1.6% of 76,000 active. Potency, µM (highest dose often 46.3 µM), without a hit: top-dose activity change, negative = inhibition, hits mostly inhibitors. P16066; active = well fitted inhibition curve with a large enough effect; inconclusive = small, poorly fitted or top-dose-only effect; inactive = no such curve, though single readings can be large or run the other way;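 also: nearly all actives have a fitted effect of over 60% in size; nearly all hits also lower the signal before the agonist is added; a reference antagonist and vehicle were the controls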
Target sequence (P16066 whole entry, looked up): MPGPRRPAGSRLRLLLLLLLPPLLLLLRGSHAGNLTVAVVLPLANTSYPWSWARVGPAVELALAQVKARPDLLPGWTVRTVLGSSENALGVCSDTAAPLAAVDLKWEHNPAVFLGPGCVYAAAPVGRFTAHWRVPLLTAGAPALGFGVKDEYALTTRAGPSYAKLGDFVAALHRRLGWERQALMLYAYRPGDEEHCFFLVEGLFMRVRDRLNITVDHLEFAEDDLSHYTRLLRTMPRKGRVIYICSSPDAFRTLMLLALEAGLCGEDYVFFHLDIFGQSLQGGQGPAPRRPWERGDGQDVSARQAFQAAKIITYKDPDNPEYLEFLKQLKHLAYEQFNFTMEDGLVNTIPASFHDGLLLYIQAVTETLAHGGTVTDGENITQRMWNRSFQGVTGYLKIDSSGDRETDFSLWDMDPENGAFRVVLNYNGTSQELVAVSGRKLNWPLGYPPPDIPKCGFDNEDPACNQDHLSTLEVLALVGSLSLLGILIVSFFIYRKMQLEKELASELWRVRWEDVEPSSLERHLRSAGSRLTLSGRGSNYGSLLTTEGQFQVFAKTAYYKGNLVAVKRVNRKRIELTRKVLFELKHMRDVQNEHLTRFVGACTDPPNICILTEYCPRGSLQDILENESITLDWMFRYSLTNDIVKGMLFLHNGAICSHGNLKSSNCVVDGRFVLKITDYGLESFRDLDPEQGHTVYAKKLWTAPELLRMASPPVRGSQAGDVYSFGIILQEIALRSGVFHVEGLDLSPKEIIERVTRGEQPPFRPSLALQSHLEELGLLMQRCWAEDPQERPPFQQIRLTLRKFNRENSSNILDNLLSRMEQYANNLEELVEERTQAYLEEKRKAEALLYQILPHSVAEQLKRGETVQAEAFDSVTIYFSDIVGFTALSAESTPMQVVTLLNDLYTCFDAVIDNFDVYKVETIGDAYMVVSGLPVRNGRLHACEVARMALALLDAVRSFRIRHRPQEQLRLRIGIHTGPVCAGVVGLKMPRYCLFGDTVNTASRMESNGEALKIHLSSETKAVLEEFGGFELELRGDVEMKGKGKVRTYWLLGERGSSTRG
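HEK293 cells stably expressing human Npr1 and cGMP GloSensor pGS-40F, loaded 2 h with 2% GloSensor reagent, given compound 30 min at room temperature. Luminescence read before and 20 min after 0.1 nM hNppA.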
* marks the source's active call; other numbers are inactive results; u = inconclusive; & = joins results of further samples; [ ] = dose if it differs, or a comment. % is scaled to controls: 0 for no effect and ±100 for the full control effect; potency is read from the fitted curve at half-maximal effect.

Sample of the layout (3 entries):
SMILES	hNpr1 antagonist
CC1=C[C@@H](CNC(=O)Nc2ccc(Cl)cc2)[C@H](C(C)C)C[C@H]1CC(=O)N(C)Cc1cccnc1	u
Cc1c(C(=O)N2CCOC(CCCC(C)C)C2)cnc2cc(=O)[nH]n12 (configuration not stated)	0%
CCC(=O)N1CCC(CC)(N2CCN(S(=O)(=O)c3cc(Cl)ccc3OC)CC2)C1 (configuration not stated)	5%

All compounds of this part, repeating the preview:
SMILES	hNpr1 antagonist
CC1=C[C@@H](CNC(=O)Nc2ccc(Cl)cc2)[C@H](C(C)C)C[C@H]1CC(=O)N(C)Cc1cccnc1	u
Cc1c(C(=O)N2CCOC(CCCC(C)C)C2)cnc2cc(=O)[nH]n12 (configuration not stated)	0%
CCC(=O)N1CCC(CC)(N2CCN(S(=O)(=O)c3cc(Cl)ccc3OC)CC2)C1 (configuration not stated)	5%
O=C(N[C@@H]1CCC[C@@H]1C(=O)NC1CCCCCC1)c1ccncc1	-2%
COCC1CN(Cc2ccc(Br)cc2)CC12CCNCC2 (configuration not stated)	-10%
Cc1ccc(-c2nc(C(=O)N(C)Cc3ccccc3)no2)cc1	-14%
COc1cccc(CC(=O)N2CC(Oc3ccc(-c4nc(-c5ccccc5)no4)cc3)C2)c1	3.5µM*
COc1ccc(CN2CCc3ncc(C(=O)NCc4cccc(Cl)c4)n3CC2)cn1	1%[70.6 µM]
Cc1ccc(CC(=O)NC2CCN(c3cnn(C)c(=O)c3)CC2)cc1	6%
C=CCN1CCN(C(=O)C2CCCN(C(=O)c3ccccc3)CCC(=O)NCC2)CC1 (configuration not stated)	6%
Cc1cccc(NC(=O)Cn2c(-c3ccc(F)cc3)nc(C)cc2=O)c1	-18%
O=C(NCCCc1ccccc1)c1ccc2nccn2c1	-3%[70.6 µM]
Cc1ccsc1C(=O)NCC1Cn2cccc2C(=O)N1Cc1ccccc1 (configuration not stated)	-17%
O=C(CN1C(=O)C(c2ccccc2)=NC12CCCCCC2)NC1CCCCC1	-8%
COc1ccc(-c2ccc3ncc(Nc4ccncc4)n3n2)cc1OC	1%[70.6 µM]
O=C(CC1CCN(C(=O)Nc2ccccc2F)C1)NC1CC1 (configuration not stated)	5%
O=C(Nc1ccsc1)N[C@H]1C[C@H]2C(=O)NC[C@@H](CCC(=O)N3CCN(c4ccccn4)CC3)N2C1	-2%
CCOc1ccc(CC(=O)N2CCC3(CC2)N=C(c2ccc(Cl)cc2)NO3)cc1	u
CCc1noc(-c2cn(C3CCN(C(=O)COc4cccc(C)c4)CC3)nn2)n1	1%
COc1ccc(C(=O)N[C@@H]2CCC[C@@H]2C(=O)NCCN2CCCC2)cc1	-2%
CNC(=O)CC1CCOC2(CCN(C(=O)NCc3ccc(OC)cc3)CC2)C1 (configuration not stated)	1%
O=C(Cn1cnc2ccccc2c1=O)N1CC[C@H](CO)[C@H](O)C1	0%
Cn1cc2c3c(cccc31)CN(C(=O)c1ccc(F)cc1Cl)CC2	-15%
COc1ccc(Cl)cc1NC(=O)CCC1CCCN(C(=O)CCc2scnc2C)C1 (configuration not stated)	-1%
CCCc1noc(-c2cn(C3CCN(C(=O)c4ccc(C)c(F)c4)CC3)nn2)n1	0%
CCCn1cc(C(=O)N[C@@H]2COCC[C@H]2Oc2ccc(C#N)cc2)c(C)n1	0%
COCc1cc(CNC(=O)C2NCCc3[nH]cnc32)[nH]n1 (configuration not stated)	3%
COC1CCOC2(CCN(C(=O)c3cc(-c4ccc(F)cc4)n[nH]3)CC2)C1 (configuration not stated)	6%
COC[C@@H]1CN(Cc2ccc3cc[nH]c3c2)C[C@H]1c1nc(C)no1	-1%
COCCOCC(=O)N1CCCC(c2nn(C)c(=O)n2C(C)C)C1 (configuration not stated)	1%
COc1ccc(-c2cc3nc4c(c(=O)n3[nH]2)CN(C(=O)c2ccncc2)CC4)cc1	0%
Cc1ccccc1C1CCCN(C(=O)CCC2(Cc3ccc(F)cc3)CCC(=O)N2)C1 (configuration not stated)	-1%
Cc1ccc(CCCN2CCCC(COc3ccccc3C(=O)NC(C)C)C2)o1 (configuration not stated)	1%
Cc1ccccc1C(=O)N(C)Cc1cccc(C(F)(F)F)c1	18%[70.6 µM]
CCS(=O)(=O)N1C[C@@H](COC)[C@H](c2nc(C3CC3)no2)C1	0%
Cc1noc(-c2cccs2)c1C(=O)NC(C)c1ccccc1 (configuration not stated)	1%
CCOC(=O)N1CCC(N(C)CC2CCN(CCc3ccc(F)cc3)CC2)CC1	1%
O=S(=O)(N[C@H]1[C@H](O)[C@H](O)C[C@@H]1c1ccc(C(F)(F)F)nc1)c1ccc(Cl)cc1	0%
O=C(Nc1cccc(F)c1)c1cc2n(n1)CC(c1ccc(Br)cc1)OC2 (configuration not stated)	-26%
O=C(Cc1ccc(F)cc1)NC1CCN(c2nc3ncccc3o2)CC1	-11%[70.6 µM]
Cn1cccc1C(=O)N[C@H]1C[C@@H](C(=O)O)N(C(=O)CCCC(=O)N2C[C@@H](NC(=O)c3cccs3)C[C@H]2C(=O)O)C1	0%
CNCC(=O)N1CCC(n2nccc2NC(=O)Nc2ccccc2Cl)CC1	-8%
CC1(C)NC(=O)N(CCC(=O)N2CCc3c(nc4cc(-c5ccccc5)[nH]n4c3=O)C2)C1=O	-10%
Cc1nnc([C@@H]2CC(F)(F)CN2C(=O)c2c(C)noc2C)o1	10%
Cc1ccc2c(C(=O)N3CCN(C(C)C)CC3)cc(NC(=O)C(C)C)cc2n1	1%
O=C(Cn1nc2c(cc1=O)CCCCC2)Nc1ccc(Br)cc1	1%
CCOC(=O)N1CCC(NC(=O)c2ccc(OC3CCN(C(=O)C4CC4)CC3)cc2)CC1	-17%
O=C(NC1CCCCC1)N[C@H]1CO[C@H]2[C@@H]1OC[C@@H]2n1cc(-c2ccccc2)nn1	-2%[70.6 µM]
CCc1ccc(NC(=O)N2CCN(C)C3(CCC(=O)N(C)CC3)C2)cc1 (configuration not stated)	5%
COc1ccc(C)cc1NC(=O)N1CCC2(CCNC(=O)CC2)CC1	-19%
CCC1=C(C(=O)OC)C(c2ccccc2Cl)N2C(CC(=O)N(C)Cc3ccccc3)=CSC2=N1 (configuration not stated)	u
O=[S+]1([O-])NC2(CCN(Cc3ccncc3)CC2)CNc2ccccc21	5%
CC(C)Cc1nc2nccc(-c3ccsc3)n2n1	1%
COc1ccc(C(=O)N2CCC3(CC2)COc2ccccc2CN3)cc1	13%
COCCc1nncn1C1CCN(S(=O)(=O)c2ccc(C(F)(F)F)cc2)CC1	-9%
Cc1cccc(C2CCCN(C(=O)c3cn(CCc4ccccc4)nn3)C2)c1 (configuration not stated)	-4%
CC(=O)N1CC2(Cc3ccccc31)CN(C(=O)c1ccc(Cl)nc1)C2	28%&-6%
COCCOC1CCOC2(CCN(C(=O)NCc3ccc(OC)cc3)CC2)C1 (configuration not stated)	0%
CNC(=O)C(C)(C)N1CCC[C@H]1C(=O)NCc1ccc(F)cc1	3%[70.6 µM]
Cc1noc(C)c1C(=O)N[C@H]1CN(CCS(C)(=O)=O)C[C@@H]1C1CC1	-9%

Among those listed so far, six contain an NH in an aromatic ring:
SMILES	hNpr1 antagonist
Cc1c(C(=O)N2CCOC(CCCC(C)C)C2)cnc2cc(=O)[nH]n12 (configuration not stated)	0%
COCc1cc(CNC(=O)C2NCCc3[nH]cnc32)[nH]n1 (configuration not stated)	3%
COC1CCOC2(CCN(C(=O)c3cc(-c4ccc(F)cc4)n[nH]3)CC2)C1 (configuration not stated)	6%
COC[C@@H]1CN(Cc2ccc3cc[nH]c3c2)C[C@H]1c1nc(C)no1	-1%
COc1ccc(-c2cc3nc4c(c(=O)n3[nH]2)CN(C(=O)c2ccncc2)CC4)cc1	0%
CC1(C)NC(=O)N(CCC(=O)N2CCc3c(nc4cc(-c5ccccc5)[nH]n4c3=O)C2)C1=O	-10%

(further entries)
SMILES	hNpr1 antagonist
O=C(c1ccccn1)N1CCC(Oc2cccnc2)C1 (configuration not stated)	6%
CCCC(=O)N1CCN(C2CCN(CCOC)C2=O)CC1 (configuration not stated)	5%
COc1ccc(CC(=O)N2CCC(Cc3nc(-c4ccc(OC)cc4)no3)CC2)cc1	2.8µM*
COc1ccc(-c2nc(C(C)C)nc3c2CN(C(=O)c2ccc(C(F)(F)F)cc2)CC3)cc1	10%
COC(=O)c1ccccc1NC(=O)Cn1ccn2nc3c(c2c1=O)CCCC3	-1%
CC(NC(=O)Cc1cccn1-c1ccc(Cl)cc1)c1ccccn1 (configuration not stated)	2%
COc1cccc(CN2CCC3(CC2)CC(c2cccnc2)=NO3)c1	1%
CN(CC1(C)CCOCC1)C(=O)c1nccc2ccccc12	2%
CCc1ccc(NC(=O)N2CCCC(Cn3cnc4cccnc43)C2)cc1 (configuration not stated)	-5%
COc1ccccc1C(=O)N1CCCN(Cc2ccc3c(c2)OCO3)c2ccccc21	-19%
Clc1cnccc1CN1CC(CNc2ccccc2)C2(C1)CN(c1ccccc1)C2 (configuration not stated)	-29%[70.6 µM]
COCC(=O)N[C@@H]1CN(Cc2ccc(C#N)cc2)C[C@H]1CO	6%
C=CCNC(=O)c1ccc(N2CC3CC(C2)[C@H]2CCCC(=O)N2C3)nc1 (some centres not stated)	-4%
CC(C)NC(=O)N1CCC(N2CC3CC(C2)[C@H]2CCCC(=O)N2C3)CC1 (some centres not stated)	4%
O[C@@H]1[C@@H](Cn2cc(-c3cccnc3)nn2)C[C@@H](NCc2ccc(F)cc2)[C@@H]1O	-3%
CN1CCC(NC(=O)C2CCCN(S(=O)(=O)c3ccccc3)CCC(=O)NCC2)CC1 (configuration not stated)	3%
CC(C)(C)NC(=O)N[C@H](Cc1ccccc1)C(=O)N1CCOCCNC(=O)CC1	2%
CC(C)(C)c1ccc(-c2cc(C[C@H]3CNCC[C@H]3CC(=O)O)no2)cc1	2%[70.6 µM]
O=C(c1ccccn1)N1CCC2(CC1)CC(N1CCN(c3ccccc3)CC1)CCO2 (configuration not stated)	-2%
COc1cccc(CNC(=O)C2Cn3cccc3C(=O)N2CC(C)C)c1OC (configuration not stated)	-5%
Cc1ccc(CN2C(=O)NC3(CCN(C(=O)c4cccc(C#N)c4)CC3)C2=O)cc1	-17%
COc1ccc(-c2nc(C)nc3c2CCN(C(=O)c2ccc(C(F)(F)F)cc2)CC3)cc1	-8%
COC(=O)CNC(=O)c1ccc(CN2C(=O)NC3(CCS(=O)(=O)CC3)C2=O)cc1	-7%
CC(=O)N1CCN2C(=O)N(Cc3ccc(F)cc3)C[C@H]2C1	12%[70.6 µM]
CN(c1ccccc1)c1ccc2nnc(-c3cc(C(=O)NCc4cccnc4)ccn3)n2n1	-1%[70.6 µM]
O=C(Cn1ccn2nc(-c3ccc(F)cc3)c(CO)c2c1=O)Nc1cc(F)cc(F)c1	-8%
Cc1nnc2n1CCC(NC(=O)c1cnco1)CC2 (configuration not stated)	0%
CSCc1ccc(C(=O)N2CCOCC(O)(CN3CCCC3)C2)o1 (configuration not stated)	6%
CC(=O)Nc1ccc(S(=O)(=O)N[C@H]2CO[C@H]3[C@@H]2OC[C@@H]3Nc2nccc(-c3cccs3)n2)cc1	u
COC[C@@H]1CN(c2ncccn2)C[C@H]1C(=O)NCC(F)(F)F	-1%
CCn1ncc(CN2CCCC23CCN(c2cc(C)nc4ccccc24)CC3)c1C	1%
COc1cccc(NC(=O)c2ccc3c(c2)N(C)C2CCCCCN2C3=O)c1 (configuration not stated)	-9%
CCN(Cc1cnn(CC)c1)C(=O)C1CCN(C(=O)N2CC3CC(C2)[C@H]2CCCC(=O)N2C3)CC1 (some centres not stated)	0%
CN1c2cc(C(=O)Nc3cccc(Cl)c3)ccc2C(=O)N2CCCCCC21 (configuration not stated)	-24%
CN(Cc1ccccc1)C(=O)c1ccc(N2CC3CC(C2)[C@H]2CCCC(=O)N2C3)nc1 (some centres not stated)	1%
CCN1C(=O)CCN(C(=O)NCCCOC)CC12CCOCC2	-2%
Cc1cc(Cn2cc3c4c(cccc42)[C@H](CC(C)C)N[C@H](C(=O)N2CCCCCC2)C3)no1	0%
O=C([C@@H]1C[C@H](Oc2ccccc2)CN1C(=O)c1ccco1)N1CCOCC1	4%
c1c[nH]c(CNC[C@H]2Cn3cc(-c4ccc5c(c4)OCCCO5)nc3CO2)n1	-7%[70.6 µM]
FC(F)(F)Oc1ccc(CN2CCC3(CC2)CC(c2cccc(C(F)(F)F)c2)=NO3)cc1	-14%
OC[C@@H]1CNC[C@H]1C1CCN(Cc2cccc(Cl)c2F)CC1	-5%
COc1ccc(-c2cn3cc(C(=O)N[C@@H](C)CO)nc3c(=O)n2CC2CC2)c(F)c1	-4%
CCc1c(C)nn(CC(=O)N2CCC3(CCNC(=O)CC3)CC2)c1C	6%
Cn1cccc1C(=O)N1C[C@@H](Oc2cccnc2)C[C@H]1C(=O)N1CCCC1	0%
COc1cc(OC)c(NC(=O)N2c3ccccc3CC2c2nc(C3CC3)no2)cc1Cl (configuration not stated)	-14%
COc1ccc(CN2Cc3cc(NC(=O)c4cc(OC)cc(OC)c4)ccc3OC(C)C2=O)cc1 (configuration not stated)	-2%
C1Cc2nnc(C3CC3)n2CCN1	3%

These rows are one share of the data (hit frequency here may not be typical).
